# KCNQ2 enhance = potentiators of rat KCNQ2 potassium channel. Potassium voltage-gated channel subfamily KQT member 2 (Rattus norvegicus), O88943. CHO-K1 KCNQ2, FluxOR thallium flux fluorescence; active compounds read high. B-score at 10 µM. actives 0.54% (n = 310,000). AID 2239, 2010;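 active means fluorescence ratio B-score at least 3 SD of library B-scores, with initial fluorescence B-score within 3 SD, cut at about 5.3 in these data; same plate scores as AID 2156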;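 further: B-score of peak minus minimum over baseline fluorescence ratio after K+ and Tl+ stimulus; positive B-score means potentiation of KCNQ2 with more thallium influx and brighter signal; only the inactives scoring about 0 or higher are listed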
# Target sequence (O88943 whole entry, looked up): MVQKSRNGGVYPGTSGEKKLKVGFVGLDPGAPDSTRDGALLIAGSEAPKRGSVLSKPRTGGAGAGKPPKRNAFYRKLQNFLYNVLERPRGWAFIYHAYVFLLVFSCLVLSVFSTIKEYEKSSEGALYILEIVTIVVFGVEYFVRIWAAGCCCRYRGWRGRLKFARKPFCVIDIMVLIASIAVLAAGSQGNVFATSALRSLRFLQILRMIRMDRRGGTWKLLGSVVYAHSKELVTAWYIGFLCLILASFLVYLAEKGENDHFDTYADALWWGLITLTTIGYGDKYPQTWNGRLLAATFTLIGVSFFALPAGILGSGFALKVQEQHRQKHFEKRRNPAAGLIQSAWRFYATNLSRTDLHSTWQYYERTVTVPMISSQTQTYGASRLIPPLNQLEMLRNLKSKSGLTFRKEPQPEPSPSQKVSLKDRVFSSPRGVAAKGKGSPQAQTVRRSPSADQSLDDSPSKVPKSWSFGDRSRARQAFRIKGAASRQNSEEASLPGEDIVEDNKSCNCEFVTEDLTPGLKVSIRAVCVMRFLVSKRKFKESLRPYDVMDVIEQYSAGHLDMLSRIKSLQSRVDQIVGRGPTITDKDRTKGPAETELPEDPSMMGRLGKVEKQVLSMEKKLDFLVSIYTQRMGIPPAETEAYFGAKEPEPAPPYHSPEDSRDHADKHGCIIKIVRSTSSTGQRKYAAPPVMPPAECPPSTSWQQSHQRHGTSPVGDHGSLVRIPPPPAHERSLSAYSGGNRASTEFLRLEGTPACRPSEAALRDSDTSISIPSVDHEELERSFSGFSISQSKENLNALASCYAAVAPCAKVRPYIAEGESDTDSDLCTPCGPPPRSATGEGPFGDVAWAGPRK
# KCNQ2 enhance baseline = recorded beside KCNQ2 enhance, whose call it bears; B-score; compound at 10 µM; measured here: initial fluorescence intensity artifact check;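 brightness before thallium and not channel activity; 0 = typical well and far values either way flag optical interference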
# Numbers without * were called inactive; & = joins results of further samples. Not all compounds are listed. The share of hits here may be higher or lower than overall.
# Under each structure: KCNQ2 enhance | KCNQ2 enhance baseline
O=c1[nH]c(N2CCc3ccccc3C2)nc2c1CCC2
→ 0.02 | 2.5
Cc1nn(C)c(Cl)c1CN1CCC(CO)(CCOc2ccccc2)CC1
→ 2.5 | -0.08
S=C(Nc1ccccc1)N1CCN(C/C=C/c2ccccc2)CC1
→ 0.48 | -0.07
C/C(=N\N=C1\NC(=O)C(CC(=O)Nc2ccc(C)c(Cl)c2)S1)C(C)C (centres undefined)
→ 1.5 | 0.24
O=C(O)/C=C1\NC(=O)c2ccccc21
→ 1.7 | 2.7
CC1CN/C(=C\C(=O)c2ccc(Cl)cc2)C(=O)N1 (centres undefined)
→ 0.4 | 3.6
Cc1cccc(NC(=O)[C@@H](NC(=O)[C@@H]2Cc3ccccc3CN2)C(C)C)c1
→ 0.05 | -0.13
CC(=O)Nc1ccc(NC(=O)/C(Cl)=C/c2ccccc2)cc1
→ 0.17 | -0.24
CC(=O)c1cccc(NC(=O)C2CCN(S(=O)(=O)c3cccs3)CC2)c1
→ 1.4 | 0.02
O=C(CSc1nc2c(c(=O)[nH]1)CCC2)Nc1cccc(F)c1
→ 0.93 | 2.4
COc1ccc(C(=O)NC2CCCCCC2)cc1S(=O)(=O)N1CCOCC1
→ 0.03 | -0.5
O=C(c1ccc(N2CCNCC2)cc1)c1cccnc1
→ 0.49 | 0.08
CCCCN1C(=O)/C(=C(/C#N)C(N)=O)c2ccccc21
→ 1.1 | -0.85
CO/N=C/c1ccc(N2CCN(C(=O)c3ccc(C)cc3)CC2)c([N+](=O)[O-])c1
→ 0.08 | -1
Cc1ccc(CN2CCN(C/C=C/c3ccc(F)cc3)CC2CCO)o1 (centres undefined)
→ 1.5 | -0.03
CNC(=O)CSc1cnc2ccccc2n1
→ 0.92 | 0.01
Cc1ccc(C(=O)C[n+]2cccc(C(N)=O)c2)cc1
→ 0.02 | -0.81
Cc1cc(C)cc(N2C(=O)CC(Sc3ccccc3C(=O)O)C2=O)c1 (centres undefined)
→ 0.22 | 0.07
Cc1ccc2nc(NC(=O)c3ccc(S(=O)(=O)N4CCCc5ccccc54)cc3)sc2c1
→ 0.51 | 0.13
OCCC1CN(Cc2ccc3nsnc3c2)CCN1C1CCCCC1 (centres undefined)
→ 0.01 | -0.01

# Not a retest: 4 of the compounds above.
# Under each structure: KCNQ2 enhance | KCNQ2 enhance baseline
Cc1ccc(C(=O)C[n+]2cccc(C(N)=O)c2)cc1
→ 0.02 | -0.81
Cc1cc(C)cc(N2C(=O)CC(Sc3ccccc3C(=O)O)C2=O)c1 (centres undefined)
→ 0.22 | 0.07
Cc1ccc2nc(NC(=O)c3ccc(S(=O)(=O)N4CCCc5ccccc54)cc3)sc2c1
→ 0.51 | 0.13
OCCC1CN(Cc2ccc3nsnc3c2)CCN1C1CCCCC1 (centres undefined)
→ 0.01 | -0.01

# The list goes on:
# Under each structure: KCNQ2 enhance | KCNQ2 enhance baseline
CC(NC(=O)C1(C)CC1(Br)Br)C(C)(C)C (centres undefined)
→ 0.9 | 0.17
C[n+]1ccccc1/C=C/c1ccc(F)c(F)c1
→ 0.8 | -0.5
Cc1ccc(C)c(NS(=O)(=O)c2cc(Br)cnc2N)c1
→ 0.01 | 0.07
Cc1ccc(S(=O)(=O)N2CCN(c3cccc(C)c3)CC2)cc1
→ 0.53 | -0.83
Cc1ccc(Sc2nc(C)cc(C)c2S(C)(=O)=O)cc1
→ 2.2 | -0.81
Cc1nc(CSc2nsc(/C=C/N(C)C)c2C#N)cs1
→ 0.77 | -1.2
O=C(NNC(=O)c1c(F)cccc1F)c1ccccc1-n1cccc1
→ 0.99 | -1.9
Cc1ccnc(NS(=O)(=O)c2ccc(Cl)nc2)c1
→ 0.02 | 0.09
Cc1ccc(C)c(OCCC(=O)OCC(=O)NC(=O)NCc2ccccc2)c1
→ 0.55 | 1.8
Cc1cccc(OCC(=O)NNC(=O)C2CCCCC2C(=O)O)c1 (centres undefined)
→ 0.21 | -2.2
CCOC(=O)C1=C(O)C(=O)N(c2ccccc2)C1c1cccc([N+](=O)[O-])c1 (centres undefined)
→ 0.14 | -0.04
COc1cc(OC)c(Cl)cc1N
→ 1.2 | 0.87
CCOC(=O)c1c(C)n(C)c2ccc(OCC(O)CN3CCC(C)CC3)cc12 (centres undefined)
→ 0.87 | -1
Cc1ccc(-n2c(Cn3c(C)nc4ccccc43)n[nH]c2=S)cc1
→ 1.4 | 0.67
CN(C(=O)COc1ccc(-c2nnco2)cc1)C1CCS(=O)(=O)C1 (centres undefined)
→ 1.1 | -1.1
CNC(=O)c1nn(-c2ccccc2)ccc1=O
→ 1.8 | 3.1
NS(=O)(=O)c1ccc(CNC(=S)NCc2ccc(Cl)cc2)cc1
→ 1.9 | 1.1
Cc1ccc(N2CC(C(=O)N3CCC(C(=O)NC(C)(C)C)CC3)CC2=O)cc1 (centres undefined)
→ 0.71 | -1.4
CCOC(=O)c1ccc(NS(C)(=O)=O)cc1
→ 1.5 | -0.97
O=C1c2cccc3cccc(c23)C(=O)N1CCN1CCN(CC(O)COc2ccc3ccccc3c2)CC1 (centres undefined)
→ 0.14 | 0.03
Cc1ccc(C)n1-c1ccc2c(c1)COC2=O
→ 0.08 | 1.2
Cc1cc(SCC(=O)N/N=C/c2ccc(O)c(O)c2)c(C)cc1Br
→ 0.62 | -1.6
Cc1nn(C)c(C)c1CN(C)S(=O)(=O)c1ccc(F)cc1
→ 1.3 | 0.72
CC(C)c1nc(SCC(=O)N2CCc3ccccc32)n[nH]1
→ 1.5 | -0.83
CCC(N=c1cc(-c2ccc(OC)c(OC)c2)oc2ccc(C)cc12)C(=O)O (centres undefined)
→ 0.47 | -0.44
O=C(c1cccc(S(=O)(=O)N2CCOCC2)c1)N1CCCCCC1
→ 1.2 | -0.5
O=C(CSc1ncccn1)Nc1ccc2c(c1)CCC2
→ 1 | -0.3
CCOc1ccc(C(C(=O)NCC2CCCO2)N(Cc2cccs2)C(=O)c2snc(C(N)=O)c2N)cc1 (centres undefined)
→ 1.6 | -0.27
Cc1nc(C)c(C(=O)Nc2cccc(C)c2C)s1
→ 0.99 | -2.5
CN(C1CCCC1)C1CCN(C(=O)CNC(=O)/C=C/c2ccccc2)CC1
→ 0.75 | -0.51
Cc1cccc(C)c1NC(=O)C1=C(O)c2sccc2N(C)S1(=O)=O
→ 1.2 | -0.04
COc1cccc(C2=NOC(C(=O)N3CCOCC3)C2)c1 (centres undefined)
→ 1.9 | 0.98
CCOC(=O)c1c(C)[nH]c(C(=O)CN2C(=O)NC(CC)(c3ccccc3)C2=O)c1C (centres undefined)
→ 1.9 | -0.96
O=C(NCCc1ccccc1)C1CCC(=O)N1C1CCCC1 (centres undefined)
→ 0.31 | -0.29
COc1cc2c(cc1/C=C1/NC(=O)N(CC(=O)Nc3ccccc3)C1=O)OCO2
→ 0.02 | -0.37
N#CC1(c2ccccc2)CCC(=NO)CC1 (centres undefined)
→ 0.77 | 0.09
O=C(/C(=C/c1ccccc1)c1ccccc1)N1CCCCC1
→ 0.3 | 0.85
COc1ccccc1NS(=O)(=O)c1ccc(OC)c(OC)c1
→ 0.38 | -0.96
COc1ccccc1NC(=S)N(Cc1cccnc1)Cc1ccccc1Cl
→ 1.7 | 1.4
O=C(NC(C(=O)O)c1ccccc1)c1ccccc1 (centres undefined)
→ 1.1 | 0.7
CC(C)COC(=O)Nc1nnc(Cc2ccccc2)s1
→ 1.5 | -1.1
C/C(O)=C(/C=NCC(=O)O)C(=O)Nc1nccs1
→ 0.44 | 0.77
CC(=O)COc1ccc2c3c(c(=O)oc2c1)CCCC3
→ 1.4 | 2.1
CC(NC(=O)CSc1nc2ccc(N)cc2s1)c1ccccc1 (centres undefined)
→ 1.2 | -1.7
C=CCn1c(=O)c2ccccc2n2c(Sc3nnnn3-c3ccccc3)nnc12
→ 0.01 | 0.94
Cn1c(SCc2ccc(F)cc2)nnc1-c1cnccn1
→ 0.03 | -0.41
COc1ccc(C(C(=O)NC2CCCCC2)N(Cc2cccs2)C(=O)Cc2c[nH]c3ccccc23)cc1OC (centres undefined)
→ 0.23 | 0.35
O=C(O)C1CCN(S(=O)(=O)N2CCOCC2)CC1
→ 1.2 | -0.11
O=C(NCCN1CCOCC1)C1CCN(c2nc3ccccc3o2)CC1
→ 0.44 | -0.95
CCCCCC(=O)OCCc1c(C)nc2nc[nH]n2c1=O
→ 1.5 | 0.44
COCCOC(=O)C1=C(C)NC(=O)NC1c1ccc(Cl)cc1 (centres undefined)
→ 0.04 | -0.19
C[C@H](CCC(=O)O)[C@H]1CC[C@H]2[C@@H]3C(=O)C[C@@H]4CC(=O)CC[C@]4(C)[C@H]3CC(=O)[C@]12C
→ 0.16 | 0.29
CC(C)CCNC(=O)C1CCC(=O)N1CCc1ccccc1 (centres undefined)
→ 1.1 | 0.02
O=C(/C(=C(\O)c1ccccc1)c1ncc[nH]1)c1ccccc1
→ 0.17 | -0.02
CCN1CCN(C(=S)NCCc2ccccc2)CC1
→ 1.7 | -0.47
CCOC(=O)c1c(-c2ccccc2)csc1NC(=O)CSc1nc(C)cc(C)n1
→ 0.16 | 0.85
CC(=O)c1cccc(NC2c3ccccc3C(=O)N2Cc2ccco2)c1 (centres undefined)
→ 1.6 | 0.35
Oc1ccc(Br)cc1-c1cc(-c2ccccc2Cl)[nH]n1
→ 0.03 | 1.8
COc1ccc(C(C(=O)NC2CCCCC2)N(C(=O)CCCC(=O)Nc2ccccn2)c2ccc3c(c2)OCCO3)cc1 (centres undefined)
→ 0.03 | -1.4
C/C=C/C=C/C(=O)N1CC2(CC(c3cccc(NC(=O)CCCCC)c3)=NO2)C[C@H]1C(N)=O (some centres undefined)
→ 0.46 | -0.05

# Laid out differently: results already given
COCCOC(=O)C1=C(C)NC(=O)NC1c1ccc(Cl)cc1 (centres undefined)
  KCNQ2 enhance = 0.04
  KCNQ2 enhance baseline = -0.19

C[C@H](CCC(=O)O)[C@H]1CC[C@H]2[C@@H]3C(=O)C[C@@H]4CC(=O)CC[C@]4(C)[C@H]3CC(=O)[C@]12C
  KCNQ2 enhance = 0.16
  KCNQ2 enhance baseline = 0.29

CC(C)CCNC(=O)C1CCC(=O)N1CCc1ccccc1 (centres undefined)
  KCNQ2 enhance = 1.1
  KCNQ2 enhance baseline = 0.02

O=C(/C(=C(\O)c1ccccc1)c1ncc[nH]1)c1ccccc1
  KCNQ2 enhance = 0.17
  KCNQ2 enhance baseline = -0.02

# The list goes on.
# Under each structure: KCNQ2 enhance | KCNQ2 enhance baseline
O=S(=O)(Nc1nccs1)c1ccc(Cl)cc1
→ 0.44 | -0.69
Cc1ccc(O)c(NC(=O)c2ccc3c(c2)C(=O)N(CC(C)C)C3=O)c1
→ 0.39 | -0.25
COc1ccc(N2CCN(C(=O)COC(=O)/C=C/c3ccc(OC(F)F)cc3)CC2)cc1
→ 0.05 | -1.8
Cc1cc(NC(=O)Nc2cc(F)ccc2F)no1
→ 1.2 | 0.22
COC(=O)c1ccc2[nH]c(C)cc(=O)c2c1
→ 0.64 | -0.61
CCOC(=O)N1CCN(C(=O)CN(c2ccccc2OC)S(=O)(=O)c2ccc(OC)cc2)CC1
→ 0.58 | 0.06
O=C1CC(N2CCN(Cc3ccc4c(c3)OCO4)CC2)C(=O)N1c1cccc2ccccc12 (centres undefined)
→ 0.04 | 2
CCOc1ccc(/C(C)=N/NC(=O)C(OC)c2ccccc2)cc1 (centres undefined)
→ 0.61 | 1.3
O=C(O)CC1S/C(=N/N=C/C=C/c2ccccc2)NC1=O (centres undefined)
→ 0.64&0.26 | 0.24&-0.25
COc1ccc(NC2CCCN(C(=O)c3ccccc3C(F)(F)F)C2)cc1 (centres undefined)
→ 1.6 | -0.17
CC(C)c1ccc(NC(=O)C2CC2c2ccccc2)cc1 (centres undefined)
→ 17* | 1.3*
CCOc1ccccc1N(CC(=O)OC)S(=O)(=O)c1ccccc1
→ 0.2 | 0.62
COc1ccc(CNS(=O)(=O)c2ccc(-c3ccc(=O)[nH]n3)s2)cc1OC
→ 1.1 | 1.4
COC(=O)c1ccc(-c2nc(CN3CCC(C(=O)N4CCOCC4)CC3)c(C)o2)cc1
→ 1.6 | -0.09
COc1ccccc1CNC(=O)c1ccccc1N
→ 2.5 | -0.37
CC(=O)Nc1cc[n+](C(C)C(=O)c2ccc(Br)cc2)cc1 (centres undefined)
→ 0.08 | 4.7
Cc1cn(Cc2ccccc2Cn2cc(C)c(=O)[nH]c2=O)c(=O)[nH]c1=O
→ 0.24 | 0.48
COc1ccc(-c2cc(C(F)(F)F)nc(-n3cncn3)n2)cc1
→ 1.2 | 0.11
COc1cc(NC(=O)CSc2nnc(NC(C)C)s2)cc(OC)c1OC
→ 0.09 | 0.02
Cc1noc(C)c1COC(=O)Cc1ccc(Br)cc1
→ 0.19 | 0.62
COc1ccc(NC(=O)Cn2c(C)cc(=O)c3cccc(OC)c32)cc1
→ 0.91 | -1.1
O=C1CC(N2CCN(c3nc4ccccc4s3)CC2)C(=O)N1c1cccc(F)c1 (centres undefined)
→ 2.3 | -0.41
CC(/C=C1\NC(=S)NC1=O)=C\c1ccccc1
→ 0.31 | -0.08
CCCC1C2C(=O)N(c3ccccc3OCC)C(=O)C2ON1c1ccccc1 (centres undefined)
→ 0.02 | 0.76
N#Cc1c(NC(=S)NC(=O)Cc2cccs2)sc2c1CCCCC2
→ 2.3 | 1.8
Cc1cc(C)n(CC(=O)NC2CCCCC2C)c(=O)c1C#N (centres undefined)
→ 1.4 | -0.94
COc1cccc(C(=O)NNC(=O)Cc2csc(N)n2)c1
→ 2.2 | 0.03
COc1ccc(C(=O)Cn2nnc(-c3ccccc3NC(=O)C3CCCCC3)n2)cc1
→ 0.05 | 0.12
CCOC(=O)CN1C(=O)CC(c2ccc([N+](=O)[O-])cc2)C1=O (centres undefined)
→ 0.27 | -1.2
COc1cccc(NC(=S)Nc2ccc(Br)cc2Cl)c1
→ 1.1 | -0.92
Cc1ccc(NC(=O)CC2C(=O)NCCN2C(=O)c2ccc(F)cc2)cc1 (centres undefined)
→ 0.07 | 0.21
CCCn1c(=O)c2c(nc3n2CC(C)CN3Cc2ccccc2)n(C)c1=O (centres undefined)
→ 1 | -0.71

# Screening data: PubChem, Johns Hopkins Ion Channel Center
